Compound activity deposited in PubChem by ICCB-Longwood Screening Facility, Harvard Medical School.
GIV-Gai inh = GIV-Galpha-i interaction inhibition. percent of control (FP), % (no concentration beside the values). Galpha-i3/FITC-GIV peptide fluorescence polarization, 90 min; hits give low values; scaled: aluminum fluoride 0%, vehicle 100%. P08753. AID 1224905. 210,000 tested, 0.42% active;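 active = replicate mean at 85% of control or lower, very high polarization wells dropped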;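 also: wells of about 15 µL received 100 nL stock; the first replicate is given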
Target sequence (P08753 whole entry, looked up): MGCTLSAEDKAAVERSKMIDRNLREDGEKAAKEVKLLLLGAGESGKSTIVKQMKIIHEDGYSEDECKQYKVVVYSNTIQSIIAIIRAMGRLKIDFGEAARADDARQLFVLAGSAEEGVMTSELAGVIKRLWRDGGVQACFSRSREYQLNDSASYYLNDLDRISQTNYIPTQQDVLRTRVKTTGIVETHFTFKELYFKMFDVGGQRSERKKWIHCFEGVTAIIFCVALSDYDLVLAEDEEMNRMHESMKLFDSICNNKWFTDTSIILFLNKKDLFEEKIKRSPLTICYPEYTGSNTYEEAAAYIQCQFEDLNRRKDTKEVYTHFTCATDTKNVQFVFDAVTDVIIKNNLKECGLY
Sa growth inh = blocks Staphylococcus aureus growth | 170,000 tested, 0.53% active | relative growth, % (concentration not given with the values) | S. aureus RN4220 growth, OD600, 20 h, 42 °C; hits give low values;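 active = growth at 42 °C up to 50% and 20 or more points under that at 30 °C, or under 10% at both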;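 also: 300 nL library stock went into each well; scaled to the means of positive and negative controls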
HCMV UL50-53 inh = inhibitors of HCMV UL50-UL53 nuclear egress complex interaction; HTRF UL50-UL53 interaction, normalized percent inhibition; inhibition, % (concentration not given with the values); 190,000 tested, 0.15% active;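 active = both replicates at 50% or more, plus weaker picks with an unusually low signal ratio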;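 also: stock transfer was 100 nL into about 20 µL; 0% = negative control wells and 100% = wells with untagged competitor protein; inactives centre near -12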
Sa growth inh second temp = second read-out of Sa growth inh, no call of its own (marks repeat the call); relative growth, %; measured here: growth at 30 °C;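 optical density after 20 h as mean of two plates; 100% = untreated growth and lower means inhibition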
Active calls of the source: *; . = not tested or not shown; & = joins results of further samples.

SMILES	GIV-Gai inh	Sa growth inh	Sa growth inh second temp	HCMV UL50-53 inh
COc1ccc(O)c(C(=O)c2cc(C#N)c(=O)n(CC3CCCO3)c2)c1 (stereo not given)	.	86	82	-41
COC(=O)c1ccc(OC(=O)c2cccnc2SC)cc1	.	74	88	-29
Cc1nn(-c2ccccn2)c2c1C(=O)CC(c1ccco1)C2 (stereo not given)	.	96	87	-5
CN1CCN(C(=O)c2cnn(-c3ccc(F)cc3F)c2C2CCN(C(=O)OC(C)(C)C)CC2)CC1	102	80	94	.
CCOc1ccccc1CNC(=O)c1cnc2sc(N3CCCCCC3)nn2c1=O	101	103	93	.
Cc1cc(C)nc(/N=C(/NC(=O)Nc2cccc(Cl)c2)Nc2ccccc2C)n1	96	114	96	.
C=CCNC(=O)Nc1c[nH]c2c(C)cccc2c1=O	97	.	.	-16
O=C(O)CCC(=O)N1N=C2/C(=C/c3ccc(F)cc3)CCCC2C1c1ccc(F)cc1 (stereo not given)	100	100	85	.
OC(CSc1ccc(Cl)cc1)CN1CCOCC1 (stereo not given)	.	117	85	-32
COc1ccc(-c2nc3ccccc3n2C)cc1	.	82	58	-6
Cc1ccc(C(=O)Nc2ccc(C(=O)OCc3cc(=O)n4ccsc4n3)cc2)cc1	96	107	83	.
C=CCn1nnc(NCc2ccc(-c3ccc(C)c(Cl)c3)o2)n1	141	.	.	-24
CC1CCCCN1C(=O)CNCc1ccc(F)cc1 (stereo not given)	99	84	85	-14
CC(C)Oc1ccccc1Nc1ncnc2ccccc12	103	111	71	.
COc1ccc(-c2ccc(C(=O)O)c(=O)[nH]2)cc1	102	94	82	-35

Shown with two lines to a compound: 2 of the compounds above.
Each structure is followed by: GIV-Gai inh	Sa growth inh	Sa growth inh second temp	HCMV UL50-53 inh
CC1CCCCN1C(=O)CNCc1ccc(F)cc1 (stereo not given)
    99	84	85	-14
CC(C)Oc1ccccc1Nc1ncnc2ccccc12
    103	111	71	.

The main list resumes, starting 6 compounds before the break.
SMILES	GIV-Gai inh	Sa growth inh	Sa growth inh second temp	HCMV UL50-53 inh
COc1ccc(-c2nc3ccccc3n2C)cc1	.	82	58	-6
Cc1ccc(C(=O)Nc2ccc(C(=O)OCc3cc(=O)n4ccsc4n3)cc2)cc1	96	107	83	.
C=CCn1nnc(NCc2ccc(-c3ccc(C)c(Cl)c3)o2)n1	141	.	.	-24
CC1CCCCN1C(=O)CNCc1ccc(F)cc1 (stereo not given)	99	84	85	-14
CC(C)Oc1ccccc1Nc1ncnc2ccccc12	103	111	71	.
COc1ccc(-c2ccc(C(=O)O)c(=O)[nH]2)cc1	102	94	82	-35
Cc1cccc(Nc2nc3nonc3nc2Cl)c1	.	-0.4*	-0.9*	-9
Cc1ccc(-c2noc(C3CCN(C(=O)Nc4ccc(C#N)cc4)CC3)n2)o1	102	119	71	0
O=C(NCc1cc(=O)n2nc(-c3ccccc3)sc2n1)Nc1cccc(Cl)c1	105	.	.	-41
C=C1Cn2c(nnc2-c2sc3ccccc3c2Cl)S1	103	99	86	-44
OC(c1nnc(-c2ccccc2)o1)c1cn(-c2ccccc2)nc1-c1cccnc1 (stereo not given)	.	102	110	-6
Cc1cc(C)c2c(-n3cccc3)nn(CC(=O)NC(C)c3ccc4c(c3)OCCO4)c2n1 (stereo not given)	105	107	89	-3
COc1ccc(N(C)C(=O)C2CCN(S(=O)(=O)c3cc(Br)cc4c3N(C(C)=O)CC4)CC2)cc1	102	100	85	-12
Cc1ccccc1NC(=O)CSC(=O)c1ccccc1	.	86	90	-8
CCOC(=O)c1ccc(NC(=O)CSc2ncnc3sc(C)c(C)c23)cc1	106	.	.	-5
O=C1Nc2ccccc2/C1=C\C1CC2C=CC1C2 (stereo not given)	105	39	27	-22
COC(=O)c1c(-c2ccc(Cl)cc2)noc1N1CCN(c2ccccc2OC)CC1	107	113	80	.
COCCNC(=O)CCC(=O)NNc1nc2ccccc2c2nc(-c3ccccc3)nn12	99	103	93	2
CCOC(=O)/C=c1\s/c(=C\c2cccs2)c(=O)n1CC(N)=O	.	88	96	-12
Cc1cc(N2CCCCC2)nc2ccc(NC(=O)CCC(=O)N3CCN(c4cccc(Cl)c4)CC3)cc12	106	88	37	-18
CNC(=O)c1c(NC(=O)Cc2coc3ccc(C)cc23)sc2c1CCCC2	105	128	94	-4
O=C(CSc1nn2c(=O)c(Cc3ccccc3)nnc2s1)Nc1ccccc1Cl	102	.	.	-2
O=C(c1c[nH]c(-c2nnc3ccccn23)c1)c1ccccc1O	.	85	85	-17
COc1ccccc1NC(=O)c1oc2ccccc2c1NC(=O)C(C)C	99	100	88	-20
CCN(Cc1ccccc1)c1ncnc2c1cnn2-c1ccc(F)cc1	102	114	76	.
Cn1c(=O)c2c(nc(NCc3ccccc3)n2Cc2ccc(Cl)c(Cl)c2)n(C)c1=O	106	105	83	-37
CC(C)c1ccc(S(=O)(=O)c2nnn3c2nc(N2CCOCC2)c2sccc23)cc1	108	103	73	.
Nc1ccccc1CC(c1c[nH]c2ccccc12)c1c[nH]c2ccccc12	105	136	72	.
CCC1Oc2ccc(C)cc2N(CC(=O)NCc2ccc(F)cc2)C1=O (stereo not given)	97	103	84	.
Oc1ccc(SSc2ccc(O)cc2)cc1	103	3.6*	3.9*	22
CCOc1ccc(N=C(c2ccccc2)N2CCOCC2)cc1	101	102	81	-28
Cc1nc2ncnn2c(C)c1CCC(=O)NC1CCCCC1	102	.	.	31
O=C(c1cccc([N+](=O)[O-])c1)N1CCN(CCc2ccncc2)CC1	99	104	90	-35
Cc1[nH]c(-c2ccc(F)cc2)cc1C(=O)N1CCN(C2CCCCC2)CC1	104	111	96	14
Cc1nnc(NC(=O)CSCc2cc(=O)c3ccc(C)c(C)c3[nH]2)s1	110	83	92	.
COc1ccc(CCNC(=O)CCCn2c(=O)c3ccccc3n(Cc3cccc(Cl)c3)c2=O)cc1OC	103	103	83	-28

4 neighbouring compounds from above, for reference:
SMILES	GIV-Gai inh	Sa growth inh	Sa growth inh second temp	HCMV UL50-53 inh
O=C(CSc1nn2c(=O)c(Cc3ccccc3)nnc2s1)Nc1ccccc1Cl	102	.	.	-2
O=C(c1c[nH]c(-c2nnc3ccccn23)c1)c1ccccc1O	.	85	85	-17
COc1ccccc1NC(=O)c1oc2ccccc2c1NC(=O)C(C)C	99	100	88	-20
CCN(Cc1ccccc1)c1ncnc2c1cnn2-c1ccc(F)cc1	102	114	76	.

(more compounds)
SMILES	GIV-Gai inh	Sa growth inh	Sa growth inh second temp	HCMV UL50-53 inh
Cn1cc(S(=O)(=O)N2CCCC2)cc1C(=O)N1CCN(c2cccc(Cl)c2)CC1	98	121	98	-18
COC(=O)CN(C(=O)c1cc2ccccc2oc1=O)c1ccc(Br)cc1	98	110	98	.
CCOC(=O)C1CCCCN1Cc1ccc(C)cc1 (stereo not given)	98	105	100	-9
Cc1ccc(-n2c(SCCCC#N)nnc2-c2ccccc2)cc1C	.	106	90	5
CCc1ccc(Nc2nncc(=O)[nH]2)cc1	100	.	.	-32
Cc1cccc(NC(=O)N2CCN3CCCCC3C2)c1C (stereo not given)	102	106	85	.
COc1cccc(Cn2c(=O)n(-c3cc(C)cc(C)c3)c(=O)c3oc4ccccc4c32)c1	105	106	114	.
Cc1cccc(C(=O)N2c3ccccc3C(N(C(=O)c3cccc(C)c3)c3ccccc3)CC2C)c1 (stereo not given)	98	.	.	-6
CCOc1ccc(NCc2cccn2-c2nnc(N3CCC(C(=O)NCc4cccc(OC)c4)CC3)s2)cc1	100	113	97	-23
Cc1c(NC(=O)c2nn(C(C)C)c(=O)c3ccccc23)c(=O)n(-c2ccccc2)n1C	.	101	97	8
COc1cc(C(=O)Nc2nnc(CCS(=O)(=O)c3ccc(Cl)cc3)s2)cc(OC)c1OC	101	.	.	-8
O=c1c(S(=O)(=O)c2ccccc2)c[nH]c2ccncc12	116	.	.	-12
CCn1c(=O)n(CC)c2cc(N3CCCC3)c(NS(C)(=O)=O)cc21	105	105	99	6
Cc1nc2c(cc1C#N)C(O)Oc1c(Cl)cc(Cl)cc1-2 (stereo not given)	.	98	81	-8
NC(=O)CSc1ncnc2nc(N3CCSCC3)sc12	101	.	.	-22
C=CCn1c(C)ccc1C	.	119	70	-23
O=C(Cc1ncc(C(F)(F)F)cc1Cl)NO	107	.	.	8
O=C(Nc1ccccc1)ON=C1CCCC1	96	108	93	-5
Cc1cc2c(cc1S(=O)(=O)N1CCCC(C(=O)N3CCc4ccccc43)C1)OC(C)C(=O)N2 (stereo not given)	99	.	.	-7
O=C(Nc1ccc2nc3n(c(=O)c2c1)CCCC3)Nc1ccccc1Br	105	.	.	-4
N#Cc1ccccc1S(=O)(=O)Nc1ccc2c(c1)C(=O)OC2	103	110	95	12
Cc1oc(C(=O)O)cc1CN1CCCC1	98	102	96	-14
O=C(Nc1ccc2nc(N3CCC(N4CCCCC4)CC3)cc(C(=O)O)c2c1)c1ccc(Cl)cc1	107	.	.	-52
Cc1cccc(-c2nc(S(=O)(=O)c3ccccc3)c(N3CCN(c4ccccc4)CC3)o2)c1	103	98	92	10
O=C(/C=C1\Sc2ccccc2NC1=O)NCc1cccnc1	103	114	87	.
Cc1cc(N2CCN(C3=NCC(C)(C)S3)CC2)n2c(nc3ccccc32)c1C#N	95	99	87	-31
Cc1c2cnn(-c3ccccc3)c(=O)c2c(C)n1CC(=O)NCc1ccccc1	112	110	83	-22
CCCSc1nnc2c(n1)OC(c1cccc(Br)c1)Nc1ccccc1-2 (stereo not given)	103	.	.	1
CC(C)=C1CCC(C)C/C1=N\O (stereo not given)	105	109	102	-10
COc1cccc(NC(=O)CSc2nc3ccccc3nc2N2CCOCC2)c1	119	105	88	-18
CCCN1CCN(c2cc(C(=O)O)c3cc(NS(=O)(=O)c4cc(C)cc(C)c4)ccc3n2)CC1	97	.	.	-73
CS(=O)(=O)CC(=O)NC1CCCCC1	111	114	91	0
Cc1ccc(C)c(CN2C(=O)c3ccccc3S(=O)c3ccc(C(=O)N4CCCCCC4)cc32)c1 (stereo not given)	97	90	87	.
CC(C)(C)c1ccc(N2C(=O)CCC2=O)cc1	.	103	81	-22
O=C(Nc1ccc2c(c1)N(C1CCCC1)C(=O)c1ccccc1S2)c1cccc(F)c1	105	107	101	.
CC1(C(=O)NC2CCCCC2)Cc2ccccc2C(=O)N1Cc1ccc(F)cc1 (stereo not given)	108&103	89	91	-5&4
CC1c2[nH]c3ccccc3c2CCN1C(=O)Nc1ccccc1 (stereo not given)	101	.	.	-15
CN1c2cc(Cl)ccc2-c2nc(SCC(=O)Nc3nccs3)ncc2S1(=O)=O	107	.	.	36*
CC(CN(C)C)CN1c2ccccc2Sc2ccccc21 (stereo not given)	.	103	88	-19&-28
CCOc1ccc(-n2c(-c3ccccc3)c(C)n3c4c(=O)n(C)c(=O)n(C)c4nc23)cc1	107	87	84	-18
COC(=O)C1=CN(Cc2cccs2)C=C(C(=O)OC)C1c1cccs1	103	92	85	-35
CC1CC(C)N(C(=O)c2cc(-c3ccccc3)on2)C(C)C1 (stereo not given)	102	84	71	10
COc1ccc(Cn2ccnc2SCC(=O)Nc2ccc3c(c2)OCCO3)cc1	101	127	79	.
O=C1OCc2ccc(NS(=O)(=O)c3ccc(N4C(=O)CCC4=O)cc3)cc21	110	102	93	-10
CN1C(=O)/C(=C2\SC(=S)N(c3cccc(Br)c3)C2=O)c2ccccc21	105	.	.	-28
Cc1cnc(NC(=O)C2=NN(c3ccccc3)C(=O)CC2)s1	.	93	82	-19
O=C(O)CCSc1nc2ccccc2c(=O)[nH]1	106	111	79	-28
O=C(CSc1nnc(COc2ccc(F)cc2)o1)N1c2ccccc2CCc2ccccc21	101	144	86	-7
CCOC(=O)c1oc2ccccc2c1COC(=O)C1=NN(c2ccccc2)C(=O)CC1	.	80	96	-17
COc1ccc(NC(=O)C2CCCN(S(=O)(=O)c3c(C)[nH]c(=O)[nH]c3=O)C2)c(OC)c1 (stereo not given)	101	95	107	13
O=C1CCC(C(=O)N2CCN(Cc3ccccc3)CC2)N1 (stereo not given)	100	103	101	-6
Cc1cccc(S(=O)(=O)c2cn(C)c3cc(N4CCN(c5ccccc5)CC4)c(F)cc3c2=O)c1	107	76	86	.
Cc1ccc(OCC(=O)Nc2cc3nn(-c4ccccc4)nc3cc2C)cc1	110	99	92	-17
CCOc1ccc(C2C(C(=O)OC(C)C)=C(C)NC3=C2C(=O)CC(c2ccc(OC)cc2)C3)cc1OC (stereo not given)	103	.	.	-12
CCCC1(C(=O)OC)NC(c2ccco2)C2C(=O)N(C)C(=O)C21 (stereo not given)	108	86	86	3
N#Cc1c(NCSCc2ccccc2)sc2c1CCCCC2	.	90	85	-7
Cn1nc(C2CC2)cc1C(=O)O	104	81	91	4
CCOC(=O)C1CCN(C(=O)c2oc3ccc(S(=O)(=O)N4CC(C)CC(C)C4)cc3c2C)CC1 (stereo not given)	102	.	.	-21
CCOC(=O)c1csc(-c2csc(C)n2)n1	101	98	104	4
Nc1ccc(C(=O)Nc2ccc(-c3nc4ccc(NC(=O)c5ccc(N)cc5)cc4s3)cc2)cc1	101	.	.	-8
Nc1ccc2c(c1)ncn2CCCn1cnc2cc(N)ccc21	.	89	83	-14
CN1CCN(C(=O)CSc2nc(-c3ccc(F)cc3)cc(C(F)(F)F)c2C#N)CC1	102	110	97	-24
COc1ccc(/C=C2\CCCC3C2=NN(C(=O)c2ccco2)C3c2ccc(OC)c(OC)c2)cc1OC (stereo not given)	99	122	80	-6
